TRPML1 inh: blocks the human TRPML1 channel | Q9GZU1 | TRPML1-inducible cells, Ca2+ dye fluorescence, FDSS; active compounds read low; inhibition of EC80 agonist-evoked calcium signal | activity change, negative = inhibition, % (test concentration not listed) | hit rate 0.02% among 390,000; in the data active means activity change below about -50%; inconclusive means about -30% to -50%; inactive means above about -30%;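 further: stimulus is agonist 54-4 at its EC80 concentration; on the % scale 0 is the no-effect control and ±100 the full control effect; compound concentration not given in the record; the text of the record puts the active cut at -80%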
Target sequence (Q9GZU1 whole entry, looked up): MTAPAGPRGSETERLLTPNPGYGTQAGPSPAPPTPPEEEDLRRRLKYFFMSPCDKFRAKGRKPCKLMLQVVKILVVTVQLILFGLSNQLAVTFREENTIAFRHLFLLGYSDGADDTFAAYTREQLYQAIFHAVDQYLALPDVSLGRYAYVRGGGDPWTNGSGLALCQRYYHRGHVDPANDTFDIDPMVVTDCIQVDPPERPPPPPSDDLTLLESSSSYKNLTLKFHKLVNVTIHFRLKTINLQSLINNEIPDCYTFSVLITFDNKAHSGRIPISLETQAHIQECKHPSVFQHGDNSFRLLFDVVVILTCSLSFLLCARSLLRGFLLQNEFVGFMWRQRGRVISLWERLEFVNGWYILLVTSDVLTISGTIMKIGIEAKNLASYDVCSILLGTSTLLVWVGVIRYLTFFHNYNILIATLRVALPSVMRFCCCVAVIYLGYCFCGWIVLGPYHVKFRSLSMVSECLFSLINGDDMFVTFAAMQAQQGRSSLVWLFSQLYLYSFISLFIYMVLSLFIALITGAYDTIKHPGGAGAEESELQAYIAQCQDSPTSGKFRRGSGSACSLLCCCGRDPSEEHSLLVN
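TRPML1-DL cells, Tet-induced overnight (~16 h, 37 °C) at 1,500 cells/well, were loaded with Ca8 no-wash dye plus quencher for 45-90 min at room temperature. Compounds were pinned during FDSS kinetic reading; agonist 54-4 at EC80 (4 uM final) then added.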
Six1-Eya2 inh: Six1/Eya2 interaction inhibition; Q15475+O00167; AlphaScreen GST-Six1/His-Eya2 binding, biochemical; active compounds read low; control for the full effect not named in the record; activity change, % (concentration not given with the values); hit rate 0.56% among 360,000; in the data active = activity change below about -65%; inconclusive = about -30% to -65%; inactive = above about -30%; further: on the % scale 0 is the no-effect control and ±100 the full control effect
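Compounds are tested against tagged Six1 and Eya2 proteins bridged by glutathione donor and nickel acceptor beads; after a one-hour incubation at 37 °C without light, AlphaScreen emission is recorded.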
TRPML1 ag: agonists of human TRPML1 channel; Q9GZU1; TRPML1-expressing cells, Ca2+ dye fluorescence, FDSS; host cell line not named in the record; reference of the full effect not given here; activation, % (no concentration beside the values); hit rate 0.12% among 410,000; AID 624414; in the data active = activation above about 50%; inconclusive = about 30% to 50%; inactive = below about 30%; further: 0% is about no effect; the text of the record puts the active cut at 80%
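Calcium fluorescence on an FDSS kinetic reader gave the read-out. Tet-induced TRPML1-DL cells were plated overnight, dye-loaded (Ca8 with quencher, 45-90 min, room temperature, dark), then read 110 s after compound addition, and again 110 s after 4uM final 54-4 (EC80).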
PINK1 modulator: changes PINK1 expression. PINK1 immunofluorescence, high-content cytometry, 24 h. Potency, µM (highest dose often 76.6 µM), for the others: at the highest dose activation (PINK1 increase), actives largely listed as activators. hit rate 0.2% among 410,000; active = well fitted activation curve with a large enough effect; inconclusive = small, poorly fitted or top-dose-only effect; inactive = flat fitted curve, though single readings scatter; cell line not stated here;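 further: potency means the concentration at half of the fitted maximal effect; % of control where 0% means no effect; nearly all actives have a fitted effect of over 65% in size; a mitochondrial uncoupler was the plate control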
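Cells are seeded, rested 12 hours, then given compound at five concentrations or DMSO for 24 hours. After fixation, blocking and antibody staining, PINK1 amount and mitochondrial localization are scored; CCCP serves as control.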
CtBP-E1A blk: blocks the CtBP interaction with E1A. activity change, % (no concentration beside the values). AlphaScreen GST-E1A/His-CtBP binding, 1536-well; active compounds read low; control for the full effect not named in the record. hit rate 0.49% among 340,000; in the data active means activity change below about -65%; inconclusive means about -30% to -65%; inactive means above about -30%; further: on the % scale 0 is the no-effect control and ±100 the full control effect
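AlphaScreen with 125 nM GST-E1A and 125 nM His-CtBP (5X stocks) in Tris pH 8.0, 300 mM NaCl, BSA, Tween 20, TCEP. Compounds preincubated 2 h at 37 deg C, then glutathione donor/nickel acceptor beads added for 1 h at 37 deg C in dark.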
D2 ag: human D2 receptor agonism in beta-arrestin assay; hit rate 0.084% among 360,000; P14416; AID 624465; activation, % (concentration not given with the values); DiscoveRx PathHunter D2 beta-arrestin, luminescence, 90 min; 100% = 57 uM dopamine signal; in the data active = activation above about 40%; inconclusive = about 15% to 40%; inactive = below about 15%; further: compound concentration not given in the record; the text of the record calls up to 30% inactive
Target sequence (P14416 whole entry, looked up): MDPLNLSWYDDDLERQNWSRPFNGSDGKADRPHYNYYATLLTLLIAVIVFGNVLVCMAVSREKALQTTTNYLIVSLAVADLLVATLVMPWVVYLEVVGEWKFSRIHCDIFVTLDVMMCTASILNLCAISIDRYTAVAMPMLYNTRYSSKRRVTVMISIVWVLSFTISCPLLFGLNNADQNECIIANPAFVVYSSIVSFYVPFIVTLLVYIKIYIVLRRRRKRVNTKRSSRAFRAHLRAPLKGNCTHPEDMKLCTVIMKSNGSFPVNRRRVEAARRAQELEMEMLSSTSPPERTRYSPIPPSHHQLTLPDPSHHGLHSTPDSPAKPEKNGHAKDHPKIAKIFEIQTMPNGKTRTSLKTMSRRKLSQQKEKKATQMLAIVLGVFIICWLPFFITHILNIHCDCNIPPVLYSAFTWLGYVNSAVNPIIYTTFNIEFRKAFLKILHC
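Agonist mode: compounds alone added to overnight-plated D2 PathHunter cells for 90 min at 37 C, with 57 uM final dopamine (EC100) defining full response. Beta-arrestin recruitment detected by chemiluminescent reagent, read after 1 h at ambient temperature.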
* marks the source's active call; other numbers are inactive results; ? = inconclusive; . = no result given; & = joins results of further samples; [ ] = another dose, or the depositor's remark.

SMILES	TRPML1 inh	Six1-Eya2 inh	TRPML1 ag	PINK1 modulator	CtBP-E1A blk	D2 ag
CCOC(=O)c1ccc(NC(=O)Cn2cnc(S(=O)(=O)N3CCCC3)c2)cc1	44&0	2	1.4&-0.7	0.2%&0.2%	-1	-0.4
CCOC(=O)C1=C(C)N(CCCC(=O)O)C(=O)NC1c1ccccc1OS(=O)(=O)c1ccccc1[N+](=O)[O-] (stereo not given)	-13	-9	-0.7	1.7%	-3	3.3
COc1ccccc1C1CCN(C(=S)Nc2ccc(Br)cc2)CC1	23	-7	1.9	-1.8%	-10	-9.9
Cc1ccc(-c2csc(NC(=O)c3cccc(S(=O)(=O)N4CCN(C)CC4)c3)n2)cc1	15	-2	-0.7	0.9%	-3	-0.9
COCCOC(=O)c1c(C)oc2ccc(OS(C)(=O)=O)cc12	-17	1	3.2	-0.6%	-5	1.4
CC1(C)CC(=O)C=C(c2cccc3c2Oc2ccccc2S3)C1	-14	3	0.1	5.3%	10	-4.4
CCCNCc1cc(OC)c(OCCC)cc1Cl	5	4	-0.2	1.3%	2	-2.4
O=C(N/N=C\c1ccc(OCC(=O)N2CCCC2)cc1)C(=O)Nc1ccccc1F	7	-13	-0.3	-0.4%	-14	-7.8
CCC(c1nc2ccccc2[nH]1)N(CCCn1ccnc1)C(=O)c1ccc(C(F)(F)F)cc1 (stereo not given)	.	4	-0.5	0.0%	4	3.5
COC(=O)Cc1ccc(NC(=S)NCCCO)cc1	9	1	-0.9	-2.3%	-1	-2.6

Only TRPML1 ag and D2 ag, for two of the compounds above:
Molecule	TRPML1 ag	D2 ag
CCOC(=O)C1=C(C)N(CCCC(=O)O)C(=O)NC1c1ccccc1OS(=O)(=O)c1ccccc1[N+](=O)[O-] (stereo not given)	-0.7	3.3
COc1ccccc1C1CCN(C(=S)Nc2ccc(Br)cc2)CC1	1.9	-9.9

Given as labelled records: part of the list above
O=C(N/N=C\c1ccc(OCC(=O)N2CCCC2)cc1)C(=O)Nc1ccccc1F
  TRPML1 inh = 7; Six1-Eya2 inh = -13; TRPML1 ag = -0.3; PINK1 modulator = -0.4%; CtBP-E1A blk = -14; D2 ag = -7.8
CCC(c1nc2ccccc2[nH]1)N(CCCn1ccnc1)C(=O)c1ccc(C(F)(F)F)cc1 (stereo not given)
  TRPML1 inh = .; Six1-Eya2 inh = 4; TRPML1 ag = -0.5; PINK1 modulator = 0.0%; CtBP-E1A blk = 4; D2 ag = 3.5

Additional structures.
SMILES	TRPML1 inh	Six1-Eya2 inh	TRPML1 ag	PINK1 modulator	CtBP-E1A blk	D2 ag
Cc1ccc(OCC(=O)Nc2ccon2)c([N+](=O)[O-])c1	4	-7	-0.1	-1.1%	-1	-3.3
CSc1nc(C)c2cc(C)oc2n1	16	8	1.0	0.3%	4	-0.8
COC(=O)c1ccc(NC(=O)Nc2ccc(F)c(Cl)c2)cc1	0	10	2.1	-1.0%[38.3 µM]	3	4.6
COc1ccc(-c2c[n+](CC(=O)c3cccs3)c3n2CCC3)cc1	5	-8	-0.5	-0.4%	-16	-16
O=C(NCC1CCCO1)C1CCCN(c2ncccn2)C1 (stereo not given)	-3	25	1.2	-0.9%[38.3 µM]	46	-1.8
COC(=O)C1=NN(C(=O)c2ccc(C)cc2)C(O)(c2ccc(Cl)cc2)C1 (stereo not given)	6	-13	-0.2	.	-17	-11
COc1ccc(-c2nnn(CC(=O)N(CCN3CCOCC3)C(C(=O)NC3CCCC3)c3ccco3)n2)cc1 (stereo not given)	-9	0	3.0	2.4%	.	-1.7
COc1cc(OC)cc(-n2nc(C(=O)N3CC(C)CC(C)C3)c3ccccc3c2=O)c1 (stereo not given)	-3	2	1.4	15%[38.3 µM]	0	-0.6
COCC(=O)Nc1nnc(SCC(=O)N2CCCCC2)s1	6	9	0.6	-0.1%	9	0.7
CC(C)[C@H](CO)N(Cc1cccc(F)c1)c1nc(Nc2cccc(Cl)c2)c2ncn(C(C)C)c2n1	-15	-16	1.5	1.4%	-12	-3.8
COc1ccccc1S(=O)(=O)Cc1ccc(C(=O)NCCN2CCCCCC2)o1	10	-2	0.1	3.4%	1	-2.3
O=C(O)C(Cc1cc(Cl)ccc1Cl)Sc1nc2ccccc2[nH]1 (stereo not given)	-13	-2	-0.8	-0.1%	.	-5.4
CCCCCCn1c(SCC(C)C)nc2c1c(=O)[nH]c(=O)n2C	-17	-9	-0.1	4.5%	-2	-3.1
COc1ccc(-c2nc(C(=O)O)cs2)cc1OC	-6	-1	0.0	0.0%	0	-2.3
COc1ccc(-c2cc(C(=O)O)c(C)o2)cc1OC	8	-2	-0.2	.	4	-3.5
O=c1[nH]cnc2c1cnn2Cc1ccccc1Cl	-16	0	-0.8	2.6%	0	-7.4
Cc1cc(=O)[nH]c2c1c(C)nn2-c1ccccc1	-12	-1	0.4	-1.2%	-5	2.0
CCC(=O)c1ccc(OCC(=O)OCc2csc(CC(=O)Nc3ccccc3C)n2)cc1	-2	2	-1.3	0.0%	-2	2.8
Cc1ccccc1NC(=O)C1CCCN1C(=O)NC1CCCCC1 (stereo not given)	-27	5	-0.4	-0.7%[38.3 µM]	6	-2.0
O=C(/C=C/c1ccccc1[N+](=O)[O-])NCC1CCCO1 (stereo not given)	-9	-8	0.0	-0.1%	-1	-0.5
O=C(N/N=C/c1cc([N+](=O)[O-])ccc1O)c1cccc(N2CCCC2=O)c1	-13	-91*	1.2	1.1%	-93*	-12
Cc1ccc(C)c(N2CCN(C(=O)c3cn(CC(C)C)c(=O)c4c3c3ccccc3n4C)CC2)c1	-20	.	-0.4	3.2%	.	.
Cc1ccc(Cl)cc1NC(=O)c1csnn1	-16	.	1.2	-1.8%	.	.
Cc1ccc(C)c(-n2nnnc2SCC(=O)NCC2CCCO2)c1 (stereo not given)	-4	3	1.6	-0.1%	9	4.2
CCc1ccc(N2C(=O)CS(=O)(=O)C23C(=O)N(Cc2ccccc2)c2ccccc23)cc1 (stereo not given)	-8	.	0.7	-5.1%	.	.
CCCCOc1ccc(-c2ncc(Cl)cn2)cc1	-10	7	0.5	2.9%[38.3 µM]	52	0.6
COc1ccc(CNc2oc(-c3ccc(COc4ccc(OC)cc4)o3)nc2C#N)cc1	10	.	1.6	6.4%	.	.
N#CCCn1cc(C=C(C#N)C#N)c(-c2ccc(-c3ccccc3)cc2)n1	3	-2	-0.3	4.5%	4	-1.3
CCC(C)NC(=O)CN1C(=O)c2cccnc2Oc2ccc(C)cc21 (stereo not given)	26	.	-0.7	-0.1%	.	.
O=C(O)CCN1C(=O)c2ccc(NC(=O)c3cccs3)cc2C1=O	-9	-13	-0.1	-6.0%[38.3 µM]	-22	-0.6
CCCc1cc(=O)[nH]c(SCC(=O)c2c(N)n(CC(C)C)c(=O)n(C)c2=O)n1	2	5	1.8	2.9%	0	-5.6
Cc1cc2oc(=O)cc(CN3CCC(C)CC3)c2cc1C	.	4	.	1.4%	3	-5.1
CC(Nc1nc(-c2cccc(Br)c2)cs1)c1nc2cc(Cl)c(N3CCCCC3)cc2n1CCOCCO (stereo not given)	9	-6	-0.1	1.1%	-12	-3.6
CC1CCN(S(=O)(=O)c2ccc3c(c2)CCN3C(=O)Nc2cccc(Br)c2)CC1	-3	.	-0.1	-0.5%	.	.
COc1ccc(N(C(C)C(=O)N/N=C/c2ccc(OCC(C)C)cc2)S(C)(=O)=O)cc1 (stereo not given)	-20	-2	3.7	3.2%	2	3.4
CC(NC(=O)CN1CCN(c2ccccc2F)CC1)c1ccccc1 (stereo not given)	4	1	-0.5	-0.8%	7	3.6
CCOc1ccc(NC(=O)/C(C#N)=C/c2ccc(N3CCCC3)c(C)c2)cc1	-9	8	9.3	?	2	5.8
Cc1cccc(OCCCCn2c(C3CC(=O)N(c4ccccc4Cl)C3)nc3ccccc32)c1 (stereo not given)	3	.	-0.5	-0.3%	.	.
O=c1c2c(-c3ccccc3)csc2ncn1/N=C/c1cn(-c2ccccc2)nc1-c1cccs1	-9	.	1.0	-0.6%	.	.
COc1ccc(/C=C(/NC(=O)/C=C/c2ccccc2)C(=O)NCCCCCC(=O)O)cc1	12	10	4.0	-0.2%	0	-1.0
COc1cc(C)c(Cl)c(C)c1S(=O)(=O)NCc1ccc2c(c1)OCO2	46	-2	0.2	-0.2%	-2	0.1
COc1ccc(CNC(=O)Cc2csc3ccccc23)cc1OC	-4	.	-0.1	0.1%	.	.
O=C(COC(=O)c1ccc([N+](=O)[O-])s1)Nc1ccccc1	13	-8	-0.2	0.2%	-4	2.7
COc1ccc2nc(C)cc(N/N=C/c3ccccc3)c2c1	1	-2	0.1	-3.6%	-9	-2.3
CN(C)C(CNc1ccc(C(N)=O)cc1[N+](=O)[O-])c1ccccc1 (stereo not given)	-14	-9	1.8	-1.1%	-9	-4.2
CC(C)c1ccc(C(=O)NN2CCOCC2)cc1	-11	6	-0.4	-0.3%	8	-2.8
Cc1cccc(NC(=O)CCN2CCCCC2)c1	14	10	-0.4	-0.7%	1	-2.0
CCOc1ccc(NC(=O)CCC(=O)N/N=C/c2ccc3c(c2)OCO3)cc1	6	7	0.9	2.9%	-6	-1.4
CN(C)c1ccc(P(=O)(Nc2ccc([N+](=O)[O-])cc2)N2CCOCC2)c(NC(=O)c2cccs2)c1 (stereo not given)	-2	8	-0.1	3.8%	1	-2.4
Cc1ccccc1NC(=O)CN1C(=O)N/C(=C\c2ccc(N3CCOCC3)c(F)c2)C1=O	17	2	0.9	1.8%	4	-2.1

More records.
SMILES	TRPML1 inh	Six1-Eya2 inh	TRPML1 ag	PINK1 modulator	CtBP-E1A blk	D2 ag
CCCCN(CCCC)NC(=O)c1ccccc1	-8	6	-0.3	0.1%	-10	-3.4
COc1ccc(NC(=O)c2ccccc2)cc1NS(=O)(=O)c1ccc(F)cc1	-13	-10	0.3	3.1%	-9	-2.7
CCN(C(=O)CN1C(=O)S/C(=C\c2ccccc2OC)C1=O)C1CCS(=O)(=O)C1 (stereo not given)	-21	3	1.0	-0.6%	8	5.2
CN(C(=O)COC(=O)c1cccs1)c1ccccc1	-4	2	-0.7	-0.6%	4	0.0
CCNC(=O)NC(=O)C(C)Oc1ccc(C(=O)OC)cc1 (stereo not given)	20	2	-0.5	1.2%	0	-2.0
CCOC(=O)Nc1ccc(C(=O)/C=C/c2ccccc2)cc1	52	0	0.8	1.0%	5	-2.6
CCC(=O)Nc1cccc(NC(=O)CSc2nnnn2C2CCCC2)c1	30	2	0.5	4.2%[38.3 µM]	-2	4.0
CCOC(=O)c1sc(NC(=O)C2C3C=CC(C3)C2C(=O)O)nc1C (stereo not given)	-12	2	-0.2	11%[38.3 µM]	3	0.9

Record cards, from the list above. Order of values: TRPML1 inh	Six1-Eya2 inh	TRPML1 ag	PINK1 modulator	CtBP-E1A blk	D2 ag
`CCOC(=O)c1sc(NC(=O)C2C3C=CC(C3)C2C(=O)O)nc1C` (stereo not given) across the screens: -12	2	-0.2	11%[38.3 µM]	3	0.9
`COc1ccc(NC(=O)c2ccccc2)cc1NS(=O)(=O)c1ccc(F)cc1` across the screens: -13	-10	0.3	3.1%	-9	-2.7

Bioassay records from PubChem BioAssay.
